High-throughput results from PubChem BioAssay.
Cruzain noTriton = blocks cruzain activity in detergent-free assay | Potency, µM, without a hit: max response, negative = inhibition, usual class: inhibitors | AID 1476 | purified cruzain, Z-FR-AMC fluorescence, no detergent | P25779 | 200,000 tested, 2.3% active;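 also: plate controls were enzyme without inhibitor for no effect and buffer without enzyme for full effect; nearly all actives have a fitted effect of over 40% in size; top concentration of the series not given in the record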
Target sequence (P25779 123-467 limits assumed): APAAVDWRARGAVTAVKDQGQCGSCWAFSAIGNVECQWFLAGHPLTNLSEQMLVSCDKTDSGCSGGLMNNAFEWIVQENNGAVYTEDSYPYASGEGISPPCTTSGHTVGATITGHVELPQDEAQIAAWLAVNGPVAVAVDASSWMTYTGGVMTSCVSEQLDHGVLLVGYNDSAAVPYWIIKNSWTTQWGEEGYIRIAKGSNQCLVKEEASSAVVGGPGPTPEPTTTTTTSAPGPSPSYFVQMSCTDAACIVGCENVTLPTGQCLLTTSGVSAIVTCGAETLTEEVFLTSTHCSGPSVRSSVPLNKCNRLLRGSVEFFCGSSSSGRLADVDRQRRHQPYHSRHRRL
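Detergent-free condition (0.00005% Triton X-100) in acetate buffer pH 5.5 with DTT. 1.5 nM enzyme and compound were pre-mixed 15 min, then 2 uM Z-FR-AMC substrate added; reaction progress from fluorescence change between first and third reads (60 s).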
SARS PLpro yeast = SARS-CoV PLP inhibition in yeast. S. cerevisiae expressing SARS-CoV PLpro, growth rescue; control for the full effect not named in the record. Potency, µM (titrated, usually from 32.9 µM), for the others: at the highest dose activity, positive = growth rescue. 330,000 tested, 0.19% active; active means well fitted rising curve with a large enough effect; inconclusive means small, poorly fitted or top-dose-only effect; inactive means no such curve, though single readings can be large or run the other way; also: 0% is about no effect; nearly all actives have a fitted effect of over 55% in size; growth read by luminescence after 48 h
Cruzain Triton = blocks cruzain activity in presence of Triton detergent; P25779; Potency, µM, inactives show max response, negative = inhibition, actives largely listed as inhibitors; AID 1478; purified cruzain, Z-FR-AMC fluorescence, 0.01% Triton; 200,000 tested, 0.43% active;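 also: plate controls were neutral wells for no effect and buffer without enzyme for full effect; nearly all actives have a fitted effect of over 40% in size; top concentration of the series not given in the record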
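15 min RT preincubation of 1.5 nM cruzain with compound, then 2 uM Z-FR-AMC added; kinetic AMC fluorescence, 60 s delta. Triton X-100 0.01%, pH 5.5.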
LASV entry inh = blocks Lassa virus binding to or entry into cells; Lassa virus pseudotype entry inhibition, cell reporter; control for the full effect not named in the record; Potency, µM (doses to about 37.9 µM), for the others: top-dose activity change, negative = inhibition, usual class: inhibitors; 300,000 tested, 1.2% active; AID 540256; active means well fitted inhibition curve with a large enough effect; inconclusive means small, poorly fitted or top-dose-only effect, or effect the other way; inactive means flat fitted curve, though single readings scatter; tested in HEK293 cells; also: % is scaled to controls: 0 for no effect and ±100 for the full control effect; nearly all actives have a fitted effect of over 50% in size; luciferase read-out
NS1 inh = influenza NS1 inhibition | S. cerevisiae slowed by influenza A NS1, growth recovery by OD600 | Potency, µM (series often up to 46.1 µM), inactives show at the highest dose activity, positive = more growth | 270,000 tested, 0.4% active | AID 2326; active means well fitted rising curve with a large enough effect; inconclusive means small, poorly fitted or top-dose-only effect; inactive means no such curve, though single readings can be large or run the other way; also: nearly all actives have a fitted effect of over 50% in size
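In this qHTS, NS1 from influenza A is expressed in budding yeast, where it slows growth. Cells are switched from glucose to 2% galactose medium (pH 6.0, -URA), treated with compound, and growth recovery is read at OD600.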
RE007 growth inh = less growth of the S. pombe RE007 Vpr strain. S. pombe RE007 Vpr strain, BacTiter-Glo ATP luminescence, 24 h; control for the full effect not named in the record. 360,000 tested, 0.21% active. Potency, µM (top dose mostly 92.2 µM), inactives show top-dose activity change, negative = less growth; active = well fitted falling curve with a large enough effect; inconclusive = small, poorly fitted or top-dose-only effect; inactive = no such curve, though single readings can be large or run the other way;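 also: % is scaled to controls: 0 for no effect and ±100 for the full control effect; nearly all actives have a fitted effect of over 50% in size; the assay follows cell death caused by Vpr and the record does not say whether a fall means rescue or toxicity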
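Fission yeast RE007 carrying one integrated HIV-1 vpr copy, seeded at OD 0.01 in PMG+AL medium with 23 nL pinned compound. Grown 24 h at 30 degrees; viability read by BacTiter-Glo luminescence after 5 min.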
Marburg entry inh = blocks Marburg virus binding to or entry into cells. Marburg virus pseudotyped entry inhibition, cell reporter; control for the full effect not named in the record; about a third of the inactives were read at about 46 µM. Potency, µM (highest dose often 37.8 µM), inactives show at the highest dose activity change, negative = inhibition, actives largely listed as inhibitors. 300,000 tested, 1.8% active; active = well fitted inhibition curve with a large enough effect; inconclusive = small, poorly fitted or top-dose-only effect, or effect the other way; inactive = flat fitted curve, though single readings scatter; tested in HEK293 cells; about a fifth of its hits are not listed in these tables; also: % is scaled to controls: 0 for no effect and ±100 for the full control effect; luciferase read-out
2A StopGo = FMDV 2A StopGo reporter, luciferase signal | human cells with a luciferase reporter of 2A StopGo recoding; control for the full effect not named in the record | Potency, µM (doses to about 57.9 µM), inactives show top-dose signal change, negative = less light | 410,000 tested, 1.2% active | AID 1159524; active = well fitted falling curve with a large enough effect; inconclusive = small, poorly fitted or top-dose-only effect; inactive = no such curve, though single readings can be large or run the other way; tested in HEK293T cells; also: % is scaled to controls: 0 for no effect and ±100 for the full control effect; nearly all actives have a fitted effect of over 45% in size; luciferase light after 4 h
* hit, by the source's call; ? = inconclusive; · = not tested or not shown; & = joins results of further samples; [ ] = dose if it differs, or a comment. Unless noted, calls follow the shape of the dose curve; as a rule, active = well fitted curve in the direction sought with a large enough effect; inconclusive = small, poorly fitted or top-dose-only effect, or another doubt; inactive = no such curve, though single readings can be large; an effect the other way counts as inactive or inconclusive. Potency is read from the fitted curve at half-maximal effect.

SMILES	Cruzain noTriton	SARS PLpro yeast	Cruzain Triton	LASV entry inh	NS1 inh	RE007 growth inh	Marburg entry inh	2A StopGo
CCn1c(CNC(=O)C23CC4CC(CC(C4)C2)C3)nnc1SCC(=O)Nc1ccccc1	13%	·	1.0%	13%[46.1 µM]	·	·	2%[46.1 µM]	-20%
CCC(C)(C)NC(=S)Nc1ccc(-c2nc3ccc(C)cc3s2)cc1	?	3%	-1.5%	?	13%	·	?	30%[activator]
COc1ccc(NC(=O)CN(C)S(=O)(=O)c2ccc3c(c2)c(=O)n(C)c(=O)n3C)cc1	-3%	2%	1.4%	-1%[46.1 µM]	5%	0%	9%&9%[46.1 µM]	-11%&1%
CC(=O)OCCNc1cc(SC(C)C)c2nonc2c1[N+](=O)[O-]	·	2%	·	?	·	1%	0%[46.1 µM]	?
COc1ccccc1-c1nc(C(=O)NCC2CCCO2)cc2c1[nH]c1ccccc12 (stereo not given)	·	-20%	·	·	-33%	-1%	·	-24%
O=C(O)COc1ccc(/C=N/O)cc1Br	·	-5%	·	-3%	·	4%	1%[46.1 µM]	-6%
CCOC(=O)[C@@H]1[C@H]2COc3cc(OC)ccc3[C@H]2N2C(=O)N(c3cccc(Cl)c3)C(=O)[C@]12C	·	-18%	·	·	21%	2%	·	-8%
COc1ccc(CCNS(=O)(=O)c2ccc3c(c2)NC(=O)C(C)S3)cc1OC (stereo not given)	·	17%	·	-9%[46.1 µM]	-1%	8%	?	-16%
NC(=O)C[n+]1cccc(CNC(=O)c2ccc(OC(F)F)cc2)c1	·	1%	·	3%	·	0%	6%[46.1 µM]	-6%
COCn1c(-c2ccccc2)nc2ccccc21	4%	2%	-0.3%	14%	-5%	-19%	15%	11%
COc1ccc(/C(N)=N/OC(=O)Cc2ccc(C)cc2)cc1OC	-7%	-16%	-3.7%	?	2%	-3%	-2%	6%
COc1ccccc1CC(=O)Nc1ccc2c(c1)CCC2	3%	29%	-4.7%	-12%	-1%	-14%	2%	30%
S=C1NC2=C(CCC/C2=C\c2ccc(Cl)cc2)C(c2ccc(Cl)cc2)N1 (stereo not given)	·	-1%	·	-3%	10%	5%	-21%	2%
Cc1nn(CCCC(=O)NCc2ccc(OC(C)C)cc2)c(=O)c2c1sc1ccccc12	2%	·	-6.0%	0%[46.1 µM]	·	·	16%[46.1 µM]	-13%
CCOC(=O)N1CCN(C(=O)COC(=O)COc2c(C)cc(C)cc2C)CC1	·	-5%	·	16%	·	0%	?	-2%
CC(CCc1ccccc1)NC(=O)c1ccc(F)cc1 (stereo not given)	·	3%	·	3%	4%	7%	16%	13%
CCOc1ccc(Cc2onc3c2C(=O)CCC3)cc1OCC	·	0%	·	15%	·	-2%	-4%[46.1 µM]	-19%
Cn1c(=O)c2c(nc(SCC(=O)N3CCc4ccccc4C3)n2C)n(C)c1=O	-3%	9%	7.6%	6%	-33%	3%	-1%	13%
C/C(=N\NC(=O)CC#N)c1cc2ccc(O)cc2oc1=O	·	0%	·	7%	2%	-2%	14%	-17%
O=C(NNC(=O)C1CCN(S(=O)(=O)c2cccc(Cl)c2)CC1)C1CC1	·	-1%	·	·	-1%	11%	·	-15%
O=C(Cn1cncn1)NCc1cccc(C(F)(F)F)c1	·	0%	·	·	-3%	0%	·	-2%
COP(=O)(OC)C(NC(=O)/C=C/c1ccccc1)C(Cl)(Cl)Cl (stereo not given)	·	-7%	·	-9%	·	-20%	20%[46.1 µM]	20%
N#CCC(CNc1ncc(C(F)(F)F)cc1Cl)OC(=O)c1cccc(C(F)(F)F)c1 (stereo not given)	-3%	-15%	-9.8%	-1%	-14%	12%	?	-11%
Cc1cc(S(=O)(=O)Nc2nc(CN3CCOCC3)nc3sc4c(c23)CCC4)cc(C)c1C	·	-3%	·	8%	·	8%	22%	26%
COc1ccc(Cl)cc1C(=O)NNC(=S)NC(=O)c1cc(-c2ccc(Cl)cc2)nc2ccccc12	3.2µM*	-2%	0.4%	?	1%	26%	?	15%
Cc1ccc(S(=O)(=O)/C(C#N)=C/c2c(N3CCCCC3)nc3ccccn3c2=O)cc1	·	0%	·	18%	5%	-2%	10%	-9%
Cc1cccc(Nc2nnc(SCc3cn4ccsc4n3)s2)c1	10%	3%	-4.1%	12%	-6%	4%	1%	0%
O=S(=O)(c1ccccc1F)N1CCN(Cc2cc3c(cc2Br)OCCO3)CC1	·	0%	·	-17%	·	24%	3%	-6%
CCN1CCN(Cc2c(O)ccc3c(=O)c(-c4ccc(OC)c(OC)c4)c(C)oc23)CC1	18%	12%	-0.1%	3%	-13%	-6%	-21%	20%
CSc1ncc(CN2CCN(C3CCN(C(C)C)CC3)C(CCO)C2)cn1 (stereo not given)	·	1%	·	7%	0%	9%	-14%[46.1 µM]	4%
Cc1cc(Oc2nnnn2-c2ccccc2)ccc1Cl	-1%	-14%	-1.1%	?	-27%	-18%	?	46%[activator]
CCc1nn(CC(=O)NCC(C)c2ccccc2)c(=O)c2cc3occc3n12 (stereo not given)	-11%	·	-3.2%	6%[46.1 µM]	·	·	-3%[46.1 µM]	-14%
CC1=C(C#N)C(Nc2cc(C)ccn2)(C(F)(F)F)C(=O)N1 (stereo not given)	11%	-3%	2.3%	-14%	9%	-2%	-10%	-13%
CCSc1nnc2c(n1)OC(c1ccc(OCC(=O)O)cc1)Nc1ccccc1-2 (stereo not given)	-6%	·	-7.4%	12%[46.1 µM]	·	·	·	0%
Cc1cc(C)cc(NC(=S)N2CCN(C(=O)c3ccco3)CC2)c1	·	16%	·	?	16%	-20%	0%	?
O=C(CN1C(=O)CCc2cc(S(=O)(=O)N3CCCCC3)ccc21)NCc1ccc(Cl)cc1	16%	·	-2.5%	?	·	·	·	-13%
CCN(CCCNC(=O)c1cc2cc3cc(OC)ccc3nc2s1)c1ccccc1	1%	·	-2.8%	3%[46.1 µM]	·	·	-2%[46.1 µM]	15%
COc1cc(NC(=O)c2cc(-c3cccc(OC)c3)n[nH]2)cc(OC)c1	13%	·	-8.4%	30%[46.1 µM]	·	·	·	39%[activator]
CC1CC(=O)N(CC(=O)NCc2ccc3c(c2)OCO3)c2ccccc2S1 (stereo not given)	-10%	0%	9.7%	-6%	4%	-6%	7%	-13%
CCOCCCNC(=S)N(CCN(CC)CC)Cc1cc2cc3c(cc2[nH]c1=O)OCCO3	·	?	·	·	4%	-14%	·	-4%
COc1ccc(NC(=O)C23CC4CC(C2)CC(n2cnc(Br)n2)(C4)C3)cc1OC	5%	-6%	2.1%	7%	4%	5%	6%	15%
O=Cc1ccc(O)c(O)c1	6%	-13%	3.9%	-26%	-5%	-7%	-24%&-24%	-23%
CCCc1cc(=O)[nH]c(SCC(=O)NC2CCCCCCC2)n1	·	-12%	·	12%	·	16%	4%	-12%
CC(C)CN1C(=O)NC(NC(=O)c2cccs2)(C(F)(F)F)C1=O (stereo not given)	-1%	-5%	-1.3%	9%	-2%	-3%	0%	-20%
CSCCC(N=Cc1c(O)n(-c2ccc(F)cc2)c(=O)[nH]c1=O)C(=O)O (stereo not given)	7%	0%	-2.9%	·	-8%	·	2%	·
CCOC(=O)CNc1c(-c2ccccc2)nc2ccc(Cl)cn12	-21%	-8%	-14%	?	-37%	?	15%	29%
Cc1ccc2nc(SC(C)C(=O)NC3CCCc4ccccc43)[nH]c2c1 (stereo not given)	-9%	-8%	10µM*	12%	4%	3%	-15%	?
COc1ccc(Cl)cc1NC(=O)c1ncn(-c2ccccc2)n1	1%	·	-6.7%	1%[46.1 µM]	·	·	10%[46.1 µM]	17%
CC1C/C(=N\NC(=S)NCc2ccccc2)CC(C)(C)C1 (stereo not given)	6%	-34%	3.2%	?	?	-6%	?	-7%
Cc1noc2nc(-c3cccs3)cc(-c3nnc4n3CCCCC4)c12	?	-1%	?	·	-7%	·	-1%	·
C[C@H]1COC2=C1C(=O)C(=O)c1c2ccc2c1CCCC2(C)C	·	-4%	·	·	-4%	-29%	·	-23%
COc1cccc(-c2nn(Cc3ccccc3)cc2C(=O)O)c1	·	23%	·	4%	0%	-14%	17%[46.1 µM]	14%
CCSc1nc2n(n1)C(c1cccc(F)c1)C1=C(CCCC1=O)N2 (stereo not given)	-4%	-4%	0.9%	-21%	1%	0%	-2%	-14%
CSc1ccccc1OCc1cc(C(=O)N2CCSCC2)no1	·	17%	·	?	-41%	-4%	?	0%
COc1cscc1C(=O)O	·	0%	·	-5%	4%	0%	2%[46.1 µM]	-5%
COc1ccc(Br)c(C(=O)Nc2cc3c(cc2N2CCCCC2)n(C)c(=O)c(=O)n3C)c1	-6%	·	-2.6%	-27%[46.1 µM]	·	·	2%[46.1 µM]	?
O=C(Cc1ccccc1)Oc1cccc(-n2cnnn2)c1	·	-1%	·	-20%	-10%	-4%	13%[46.1 µM]	-5%
Cn1c(CNc2ccc(O)cc2)nc2ccccc21	·	6%	·	·	5%	14%	·	38%[activator]
Cc1ccc(-c2cc(C(=O)NCc3cnn(C)c3C)c3ccccc3n2)cc1C	?	·	-6.7%	-16%[46.1 µM]	·	·	?	7%
CC(NC(=O)c1ccco1)C(=O)N1CCN(c2ccccc2)CC1 (stereo not given)	·	1%	·	2%	4%	-13%	2%	-20%
(listing goes on)
SMILES	Cruzain noTriton	SARS PLpro yeast	Cruzain Triton	LASV entry inh	NS1 inh	RE007 growth inh	Marburg entry inh	2A StopGo
CCn1c(SCC(=O)NCCc2ccccc2)nnc1C(C)C	·	8%	·	0%[46.1 µM]	·	1%	8%[46.1 µM]	-21%
CCS(=O)(=O)N1CCN(c2cccc(C)c2C)CC1	0%	-9%	2.1%	-4%	-3%	-4%	-19%	0%
CC1(c2ccc3ccccc3c2)NC(=O)N(CC(N)=O)C1=O (stereo not given)	·	-2%	·	·	2%	5%	·	9%
COc1ccc(NCc2nnc(-c3ccccc3)o2)cc1	·	0%	·	·	14%	-2%	·	13%
CCN(CC)c1ccc(C=NNc2ccc([N+](=O)[O-])cn2)cc1	·	·	·	-12%[46.1 µM]	·	-17%	?	5%
